Bioassay records (PubChem)
AmpC nodet inh – blocks E. coli AmpC beta-lactamase in absence of detergent. actives 1.8% (n = 71,000). Potency, µM (highest dose often 28.7 µM), for the others: at the top dose activity change, negative = inhibition. AID 585. AmpC nitrocefin hydrolysis, absorbance 480 nm, no detergent; potencies from a single point are estimates; active = falling curve, for most hits resting on a single point; inconclusive = weak or doubtful change; inactive = flat or rising curve; note: % of control where 0% means no effect; about half of the hits show no inhibition at the top dose; a quarter of the inactives give rising signals
Target sequence (P00811 whole entry, looked up): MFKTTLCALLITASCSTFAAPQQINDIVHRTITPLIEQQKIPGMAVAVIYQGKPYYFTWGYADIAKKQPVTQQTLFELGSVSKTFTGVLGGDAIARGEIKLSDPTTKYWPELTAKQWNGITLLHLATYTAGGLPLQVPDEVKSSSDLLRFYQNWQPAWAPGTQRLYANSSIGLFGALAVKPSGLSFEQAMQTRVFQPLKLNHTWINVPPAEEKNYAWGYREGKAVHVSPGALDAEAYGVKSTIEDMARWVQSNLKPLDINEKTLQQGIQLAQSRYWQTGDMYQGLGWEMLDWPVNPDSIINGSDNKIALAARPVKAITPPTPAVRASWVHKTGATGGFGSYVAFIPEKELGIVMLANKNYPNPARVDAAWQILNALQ
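AmpC in 20 mM phosphate buffer pH 7.0 was preincubated 15 min at room temperature with compounds. Nitrocefin (800 uM stock) was then added and hydrolysis followed at 480 nm every 20 s for 4 min.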
The depositor's hits bear a star; ? = inconclusive; [ ] = another dose, or the depositor's remark. Potency is the fitted concentration of half-maximal effect. These rows are one share of the data (hit frequency here may not be typical).

SMILES	AmpC nodet inh
COc1ccc(OC)c(C(=O)CSc2nc3cccnc3n2C)c1	4.3%
COc1ccccc1NC(=O)C1=C(C)Nc2nnnn2C1c1cccc(Br)c1 (stereo unspecified)	12.1%
CCOC(=O)C1C2c3ccccc3O[C@@]1(C)N=C1SCC(=O)N12 (stereo partly specified)	8.9%
Cc1ccc(NC(=O)CN2C(=O)C(C)Oc3ccccc32)nc1 (stereo unspecified)	-7.8%
CCCOC(=O)c1ccc(-c2c(C)noc2-c2ccc(OC)cc2O)o1	-5.3%
CC1(C)Cc2cccc(OCC(O)CNCc3ccccn3)c2O1 (stereo unspecified)	28.9%
CC(C)(C)C(=O)NC1(C(F)(F)F)C(=O)Nc2c1c(=O)[nH]c(=O)n2Cc1ccco1 (stereo unspecified)	-9.0%
COc1cc(C2Nc3ccccc3C(=O)N2c2ccccc2OC)ccc1O (stereo unspecified)	3.2%
COc1cc(Cn2c(N)c(C#N)c3nc4ccccc4nc32)cc(OC)c1	38.6%
Cc1cc(C)n(-c2nc3sc4c(c3c3nnc(SCC(N)=O)n23)CC(C)(C)OC4)n1	77.5%
COc1ccc(CCN2C(=O)CCC2(C)C(=O)NCc2cccnc2)cc1OC (stereo unspecified)	-3.0%
CCOc1ccc2nc(NC(=O)C3CCCN(S(=O)(=O)c4c(C)noc4C)C3)sc2c1 (stereo unspecified)	3.98µM*[single pt active]
COC(=O)/C=C(\C)NC(=O)c1ccccc1Cl	7.0%
CC(C)(C)n1nnnc1C(c1cccnc1)N1CCN(C(=O)c2ccco2)CC1 (stereo unspecified)	12.0%
O=C(Cn1nnc(-c2ccccc2F)n1)Nc1cccc2ncccc12	-2.7%
CCOC(=O)c1c(NC(=O)CSc2nc3cccnc3n2C)sc(C(C)=O)c1C	77.1%
CC(=O)c1ccc(OCC(O)Cn2nnc3ccccc32)cc1 (stereo unspecified)	-2.8%
Cc1ccc(C(=O)NC=C(Cl)Cl)cc1	-13.5%
CCOc1cc(S(=O)(=O)NCc2ccc3c(c2)OCO3)ccc1F	-7.6%
COc1ccc(-c2noc(-c3ccc(Cl)cc3)n2)cc1	0.3%

Given as labelled records: part of the list above
CC(C)(C)C(=O)NC1(C(F)(F)F)C(=O)Nc2c1c(=O)[nH]c(=O)n2Cc1ccco1 (stereo unspecified)
  AmpC nodet inh = -9.0%
COc1cc(C2Nc3ccccc3C(=O)N2c2ccccc2OC)ccc1O (stereo unspecified)
  AmpC nodet inh = 3.2%
COc1cc(Cn2c(N)c(C#N)c3nc4ccccc4nc32)cc(OC)c1
  AmpC nodet inh = 38.6%

(further entries)
SMILES	AmpC nodet inh
COc1ccc(S(=O)(=O)Nc2ccc(Cl)cn2)c(C)c1C	-14.6%
Cc1ccc(C)c(N2CCN(C(=O)c3ccc(NS(=O)(=O)c4c(C)noc4C)cc3)CC2)c1	38.6%
CCOC(=O)C1CCN(c2nc(C)nc3c2oc2ccccc23)CC1	-2.1%
CCCNS(=O)(=O)c1ccc(CCC(=O)NCc2cccnc2)cc1	11.5%
O=C1Nc2ccccc2C12OCCCCO2	6.6%
Cc1ccc2c(c1)nnn2C1CCN(CC(=O)N2c3ccccc3CC2C)CC1 (stereo unspecified)	93.9%
COC(=O)c1cc(-c2c[nH]c3ccccc23)n[nH]1	0.8%
CC(=O)O[C@@H]1[C@H]([N+]2(C)CCCCC2)C[C@@H]2[C@@H]3CC[C@@H]4C[C@@H](OC(C)=O)[C@H]([N+]5(C)CCCCC5)C[C@@]4(C)[C@H]3CC[C@]21C	6.0%
O=C(O)CCc1ccc(-c2ccc(Br)cc2)n1CC(=O)O	10.0%
CCOC(=O)N1CCN(C(=O)C(CC)n2nc(C)c3sc4ccccc4c3c2=O)CC1 (stereo unspecified)	132.0%
CCn1cnc2c1c(=O)n(Cc1csc(-c3ccccc3)n1)c(=O)n2Cc1ccccc1	55.6%
CC1CCN(S(=O)(=O)c2ccc3[nH]cc(C(=O)NCCN4CCOCC4)c(=O)c3c2)CC1	100.8%
CCOC(=O)CCNC(=O)CNC(=O)OCc1ccccc1	0.5%
CCC(=O)N(CCO)Cc1cc2ccc(C)c(C)c2[nH]c1=O	-1.0%
N#Cc1cnc(SCC(=O)Nc2ccccc2C(F)(F)F)nc1N	-9.1%
COC(=O)CCCCC(=O)OC	2.3%
C/C(N)=C(/C#N)C(=O)COC(=O)CCSc1ccccc1	-1.5%
NC(=O)c1ccsc1NC(=O)CN1C(=O)C2CC=CCC2C1=O (stereo unspecified)	-9.6%
O=C(NC1CCCCC1)NC1CCN(CC(=O)N2CCOCC2)CC1	-13.4%
Cc1ccc(-c2nnc(SCC#N)n2N)cc1	?

Arranged by number of heavy atoms (highest first): 3 of the compounds above
SMILES	AmpC nodet inh
CC(=O)O[C@@H]1[C@H]([N+]2(C)CCCCC2)C[C@@H]2[C@@H]3CC[C@@H]4C[C@@H](OC(C)=O)[C@H]([N+]5(C)CCCCC5)C[C@@]4(C)[C@H]3CC[C@]21C	6.0%
O=C(NC1CCCCC1)NC1CCN(CC(=O)N2CCOCC2)CC1	-13.4%
COC(=O)CCCCC(=O)OC	2.3%

Next part:
SMILES	AmpC nodet inh
CSc1nsc(SCC(=O)Nc2cccc(C(C)=O)c2)n1	-11.2%
c1coc(CNc2nc3nonc3nc2NCc2ccco2)c1	-19.0%
CCOC(=O)c1cc(NC(=O)N2CCOCC2)c(C)nc1C	1.6%
O=C1c2cccc(O)c2C(=O)c2c(O[C@@H]3O[C@H](CO)[C@@H](O)[C@H](O)[C@@H]3O)cccc21	10.7%[5.75 µM]
Cc1cccc(C)c1NC(=O)CCCSc1nnc(-c2ccco2)n1-c1ccccc1	96.5%
CC(C)CC1(C(=O)NCCc2c[nH]c3ccccc23)C=CCN1C(=O)c1ccccc1 (stereo unspecified)	26.0%
CCOC(=O)Cn1nnnc1C(CC)N(Cc1cccs1)Cc1cc2cc(C)ccc2[nH]c1=O (stereo unspecified)	97.3%
Cc1ccccc1OCc1nnc(SCC(=O)Nc2ccc3c(c2)oc2ccccc23)n1C	7.5%
CC(C)(O)[C@@H]1[C@H]2OC(=O)[C@@H]1[C@]1(O)C[C@H]3O[C@]34C(=O)O[C@H]2[C@@]14C (tested in a mixture with another compound)	10.4%
CC(=O)N1C2(C=CC1(C)C(=O)NCc1ccc(C)o1)CCCCC2 (stereo unspecified)	34.6%
CC(C)C[C@H](NC(=O)[C@@H](O)[C@H](N)Cc1ccccc1)C(=O)O	6.6%
O=C(NCC1CCC(C(=O)O)CC1)c1cccnc1 (stereo unspecified)	-2.6%
CCOC(=O)c1cccc(S(=O)(=O)N(CCO)Cc2cc3cc(OC)c(OC)cc3[nH]c2=O)c1	46.0%
Cc1ccnc(NC(=O)Nc2ccc(F)cc2)c1	-9.0%
O=C1NCCCCC1NC1CC(=O)N(c2ccccc2)C1=O (stereo unspecified)	11.5%
O=C(Nc1ccc(N2CCN(Cc3ccccc3)CC2)cc1)c1cccnc1	29.5%
CN=C1CC(C)(C)CC(=O)/C1=C(/O)CCC(=O)NC	-12.9%
CC(CCc1ccco1)NC(=O)Cn1nc(Cc2ccncc2)c2ccccc2c1=O (stereo unspecified)	42.1%
COc1ccc(C2N(c3cc(Cl)ccc3OC)C(=O)C3CCCN32)cc1 (stereo unspecified)	7.1%
c1coc(CNc2ncnc3sc4c(c23)CCCCC4)c1	10.5%

Quoted from the entries so far, six compounds:
SMILES	AmpC nodet inh
Cc1ccc(-c2nnc(SCC#N)n2N)cc1	?
CSc1nsc(SCC(=O)Nc2cccc(C(C)=O)c2)n1	-11.2%
c1coc(CNc2nc3nonc3nc2NCc2ccco2)c1	-19.0%
CCOC(=O)c1cc(NC(=O)N2CCOCC2)c(C)nc1C	1.6%
O=C1c2cccc(O)c2C(=O)c2c(O[C@@H]3O[C@H](CO)[C@@H](O)[C@H](O)[C@@H]3O)cccc21	10.7%[5.75 µM]
Cc1cccc(C)c1NC(=O)CCCSc1nnc(-c2ccco2)n1-c1ccccc1	96.5%

Continued:
SMILES	AmpC nodet inh
Cc1ccc(CCNc2ccccc2)c[n+]1[O-]	16.3%
Cc1nc2cc(O)ccc2n1C	-10.0%
O=c1nc(-c2ccccc2)cc(-c2ccccc2)[nH]1	2.0%
Cc1nc(SCC(=O)NCc2ccco2)c2c3c(sc2n1)CCCC3	56.4%
CC(C)[C@@H](CC(=O)N[C@@H]1CCNC[C@H]1C(=O)N[C@H](CC(=O)N[C@@H](CCC(=O)O)CC(=O)O)Cc1ccccc1)NC(=O)C[C@H](Cc1c[nH]c2ccccc12)NC(=O)[C@@H]1CNCC[C@H]1N	116.1%
Cc1ccc(CCN2CC(C(=O)NC3CCCC3)CC2=O)cc1 (stereo unspecified)	11.5%
CCN(Cc1ccccc1)C(=O)C1CCN(Cc2ccc(OC)c(OC)c2OC)CC1	41.8%
Brc1ccccc1C1=Nn2c(nnc2-c2ccccc2)SC1	11.5%
CCOc1ccc(OCC)c(NC(=O)C2CCN(c3ncccn3)CC2)c1	44.0%
CC(=O)NCCn1c(C)cc2ccccc21	12.0%
O=C(CN1C(=O)c2cccc3cccc1c23)Nc1ccc2c(c1)OCO2	?
CC(=O)Nc1nc(C)c(S(N)(=O)=O)s1	10.2%
CCOC(=O)N1CCN(c2cc(=O)n(C3CCCCC3)c(=O)[nH]2)CC1	17.4%
Cn1cccc1C(=O)N1CCC2(CCN(C(=O)Nc3cccc(F)c3)CC2)CC1	69.7%
C/C(Sc1nnc(Cc2ccccc2)o1)=C(/O)c1ccccc1	-15.9%
Cn1c(SCc2nc3ccccc3[nH]2)nnc1-c1cccnc1	3.8%
O=C(O)c1ccc(Cc2ccccc2C(=O)O)cc1	5.6%[5.75 µM]
CC1(c2ccccc2)NC(=O)N(CC(=O)Nc2cccc(C#N)c2)C1=O (stereo unspecified)	-15.6%
OCc1nc(CO)n(Cc2ccccc2)n1	-12.6%
CCC(=O)N1CCc2cc(Br)cc(S(=O)(=O)CC(=O)OC)c21	9.5%
N#Cc1cn(-c2ccccc2)nc1-c1cc2ccccc2oc1=O	-7.5%
CC1CCC(NC(=O)CN2CCC(n3nnc4cc(F)ccc43)CC2)CC1 (stereo unspecified)	93.2%
Cc1cc(C)n2nc(S(=O)(=O)N(CC(C)C)CC(C)C)nc2n1	9.7%
CCOC(=O)C1CCN(c2c(NCc3ccc(C(=O)O)cc3)c(=O)c2=O)CC1	4.1%
O=c1c2ccccc2nc(-c2ccco2)n1-c1nccs1	0.1%
CC1(C)Cc2nc3oc4c(NCc5ccccc5)ncnc4c3cc2CO1	42.5%
CCOC(=O)c1ccccc1N/C=C1\CCCC1=O	31.6%
CN(C)c1nc(N)nc(Cn2ccnc2)n1	-1.8%
Cc1c(Cl)cccc1Nc1nc(N)nc(CSc2ncccn2)n1	8.6%
COC(=O)C1=C(Cn2cnc3ccccc32)NC(=O)NC1c1cc(C)ccc1C (stereo unspecified)	41.3%
CCc1ccc2c(-c3cccc(Cl)c3)nc(=O)n(CC)c2n1	16.3%
O=C(CC(=O)c1ccncc1)c1ccccc1	17.9%[5.75 µM]
CCCCCn1c(=NC(C)=O)c(C#N)cc2c(=O)n3cccc(C)c3nc21	32.0%
CCOC(=O)c1ccc2nc(C)c3c(c2c1)OC(C)C3 (stereo unspecified)	-11.0%
Cc1onc(-c2c(Cl)cccc2Cl)c1C(=O)NCC1CCCO1 (stereo unspecified)	13.0%
O=C(Cn1nnc(-c2ccccc2F)n1)NCCc1ccccc1	-9.1%
O=C(NC1CCCCC1)c1ccc(S(=O)(=O)N2CCCCC2)cc1	4.0%
CCOC(=O)CSc1nnc(CNC(=O)c2ccccc2OC)n1-c1ccc(OC)cc1	73.6%
Cc1cccc(OCCCc2c(C)n[nH]c2C)c1	23.5%
N#Cc1c(/N=C/c2c(O)n(Cc3ccco3)c(=O)[nH]c2=O)sc2c1CCCC2	-10.2%

2 entries from above, field by field.
CCc1ccc2c(-c3cccc(Cl)c3)nc(=O)n(CC)c2n1
  AmpC nodet inh = 16.3%

O=C(CC(=O)c1ccncc1)c1ccccc1
  AmpC nodet inh = 17.9%[5.75 µM]

(next part)
SMILES	AmpC nodet inh
CC1(C)Cc2c(C#N)c(NCCCO)nc(-c3ccccc3)c2CO1	53.2%
CCOC(=O)c1c(N)sc(C(N)=O)c1C	-9.0%
COc1ccc(-n2nc(C(=O)NCC(=O)NCc3ccco3)c3ccccc3c2=O)cc1	12.0%
CCn1c(CNc2ccc(OC)cc2)nnc1SCC(=O)N1CCCc2ccccc21	59.0%
COc1ccc(C2C(C(=O)N3CCN(c4ccccc4F)CC3)c3ccccc3C(=O)N2C)cc1 (stereo unspecified)	97.0%
CCn1c(C)cc2c(c1=O)C(c1ccccc1Br)C(C#N)=C(N)O2 (stereo unspecified)	6.7%
CCOC(=O)c1cc2c(N)c(C(=O)c3cc(C#N)c(SC)nc3C)sc2nc1C	10.8%
COc1ccc(-c2nnc(SCc3nnc(-c4ccc(Cl)cc4)o3)n2-c2ccccc2)cc1	44.4%
CC(C)n1c(SCCCc2ccccc2)nc2c1c(=O)[nH]c(=O)n2C	4.1%
COc1ncnc(NS(=O)(=O)c2ccc(N)cc2)c1OC	-7.0%[12.8 µM]
Cc1nnc(SCC(=O)N2CCC(c3noc4ccc(F)cc34)CC2)s1	65.1%
COC(=O)c1ccccc1NC(=O)C(C)NS(=O)(=O)c1ccc(OC)cc1 (stereo unspecified)	-4.7%
Cc1ccc(S(=O)(=O)NCCCOC(=O)Nc2ccncc2)cc1	-0.8%
O=C(Nc1nc(-c2ccc(S(=O)(=O)N3CCCCCC3)cc2)cs1)c1cccs1	7.94µM*
CCCCOC(=O)CCn1c(=S)oc2ccccc21	-8.8%
COc1ccccc1N(CCC#N)C(=O)CSc1ccc2c(c1)OCCO2	20.5%
N#Cc1ccccc1Cn1cc(C(=O)c2cccs2)c2ccccc21	93.2%
CC1(C(=O)O)Sc2[nH]c(=O)sc2C2c3ccccc3OC(=O)C21 (stereo unspecified)	-7.9%
CC1Cc2ccccc2N1c1ncnc2c1nnn2Cc1ccccc1 (stereo unspecified)	41.8%
